# Screening data deposited in PubChem BioAssay by National Center for Advancing Translational Sciences (NCATS).
# A647 autofl: qHTS Assay for Spectroscopic Profiling in A647 Spectral Region. Compound fluorescence, A647 channel (570/671 nm), Tris buffer. 59,000 tested, under 10 active. AID 592, 2007. max dye-equivalent concentration, M; active means above 1 µM dye equivalent; inconclusive means 0.1 to 1 µM; inactive means 0.1 µM or less;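 further: values scaled relative to a standard on each plate; highest value over a series up to 38 µM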
#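 Compound fluorescence was measured in 100 mM Tris buffer, pH 8.0, after 15 min at room temperature, using 570 nm excitation and 671 nm emission filters. Signal was normalized to a per-plate Alexa 647 standard curve and expressed as dye-equivalent concentration at each compound concentration.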
# TSHR agonist: qHTS Assay for Agonists of the Thyroid Stimulating Hormone Receptor | Thyrotropin receptor (Homo sapiens), P16473 | HEK293-CNG-TSHR cells (CNG channel as cAMP sensor), membrane potential dye, cAMP | Potency, µM (series often up to 57.1 µM), for inactives: top-dose activation, most hits filed as activators | 0.48% of 73,000 active; active = well fitted activation curve of enough size with the parental cells flat; inconclusive = any curve in the parental cells; inactive = parental cells flat and receptor cells flat or falling; further: potency means the concentration at half of the fitted maximal effect; % of control where 0% means no effect; weak receptor curves with flat parental cells got no call and are not listed
# Target sequence (P16473 whole entry, looked up): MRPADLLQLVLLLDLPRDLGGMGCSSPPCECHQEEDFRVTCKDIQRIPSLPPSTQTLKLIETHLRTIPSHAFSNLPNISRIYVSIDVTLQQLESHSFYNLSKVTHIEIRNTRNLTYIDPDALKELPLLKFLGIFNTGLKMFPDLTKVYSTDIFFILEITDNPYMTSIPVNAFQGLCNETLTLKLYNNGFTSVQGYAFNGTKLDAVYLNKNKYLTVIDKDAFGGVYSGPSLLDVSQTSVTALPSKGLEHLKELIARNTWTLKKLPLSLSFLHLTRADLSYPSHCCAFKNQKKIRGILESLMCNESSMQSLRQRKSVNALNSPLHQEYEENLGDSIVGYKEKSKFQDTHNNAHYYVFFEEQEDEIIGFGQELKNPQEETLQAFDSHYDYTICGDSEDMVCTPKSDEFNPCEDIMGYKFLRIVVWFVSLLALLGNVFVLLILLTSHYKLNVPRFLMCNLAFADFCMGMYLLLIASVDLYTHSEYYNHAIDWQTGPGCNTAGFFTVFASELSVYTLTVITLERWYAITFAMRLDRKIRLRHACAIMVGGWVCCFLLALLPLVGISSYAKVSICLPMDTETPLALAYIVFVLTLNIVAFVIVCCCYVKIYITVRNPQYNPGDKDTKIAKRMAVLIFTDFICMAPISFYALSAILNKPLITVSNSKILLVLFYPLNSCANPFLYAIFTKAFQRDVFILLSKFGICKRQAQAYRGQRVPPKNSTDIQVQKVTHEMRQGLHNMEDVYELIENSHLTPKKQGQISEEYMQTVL
#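 HEK 293 cells stably expressing TSHR and a cAMP-gated CNG channel; parental CNG-only cells as counterscreen. Cells preloaded 60 min with membrane potential dye plus 100 uM RO 20-1724, then compound 30 min; fluorescence read at 590 nm.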
# AID923: qHTS Assay for Allosteric/Competitive Inhibitors of Caspase-1: Spectroscopic Profiling in AFC Spectral Region; compound fluorescence, AFC spectral region (405/520 nm); almost no hit is shown here; Potency, µM (highest dose often 57.5 µM), without a hit: at the highest dose fluorescence increase, actives largely listed as activators; 1.1% of 75,000 active; AID 923, 2007; active means well fitted activation curve with a large enough effect; inconclusive means small, poorly fitted or top-dose-only effect;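 further: potency means the concentration at half of the fitted maximal effect; 0% is about no effect; scaled to a free AFC standard on each plate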
#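 Titrations up to 57 uM read every 20 sec for 3 min (405/520 nm) with 50 nM caspase 1 and 5 uM Ac-WEHD-AFC, pH 7.5 HEPES buffer. Fluorescence-vs-time intercept gave baseline, scaled against on-plate AFC standard.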
# A488 autofl: qHTS Assay for Spectroscopic Profiling in A488 Spectral Region; AID 591, 2007; compound autofluorescence, A488 spectral region, dye equivalency; stronger effect = higher value; max dye equivalency, M; 0.1% of 59,000 active; active = above 10 nM dye equivalent; inconclusive = 1 to 10 nM; inactive = 1 nM or less; about half of its hits are not listed in these tables;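 further: highest value over a series up to 38 µM; compound alone in buffer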
#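 Read-out: relative fluorescence at 480/540 nm, expressed as Alexa 488 dye-equivalent concentration from a six-point A488 standard included per plate. Conditions: 100 mM Tris, pH 8.0; 15 min incubation, room temperature.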
# Resorufin fluor: qHTS Assay for Spectroscopic Profiling in Resorufin Spectral Region. Compound fluorescence, resorufin region 547/598 nm, buffer; stronger effect = higher value. max dye-equivalent concentration, M. 0.04% of 59,000 active; active = above 10 nM dye equivalent; inconclusive = 1 to 10 nM; inactive = 1 nM or less; a few of its hits are not listed in these tables; further: highest value over a series up to 38 µM
#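 Compounds in 100 mM Tris buffer, pH 8.0, incubated 15 min at room temperature, then read with 547 nm excitation and 598 nm emission filters. Fluorescence was converted to dye-equivalent concentration using an on-plate six-point resorufin standard curve.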
# * hit, by the source's call; i = inactive; ? = inconclusive; nt = no result given; [ ] = another dose, or the depositor's remark. Not all compounds are listed, so the mix of outcomes need not match the whole.
SMILES,A647 autofl,TSHR agonist,AID923,A488 autofl,Resorufin fluor
COC(=O)[C@@]1(Cc2ccccc2)[C@@H]2C(=CC(=O)[C@H]2CC(=O)C(=O)N(C)C)CN1C(=O)c1ccccc1,nt,3%,-1.6%,nt,nt
CC1(C)CC(=O)C=C(NCc2ccncc2)C1,5.3e-08,nt,nt,i,i
COc1ccc(-n2nnnc2SCC(=O)Nc2ccc3c(c2)OCCO3)c(OC)c1,2.6e-08,25%,0.5%,i,i
O=C(Cc1ccccc1)N1CCC(C(=O)N2CCN(c3ccc(F)cc3)CC2)CC1,nt,0%,-0.8%,nt,nt
Cn1c(=O)c2[nH]cnc2n(-c2ccccc2)c1=O,1e-09,7%,2.6%,i,i
COC(=O)c1sc(N)c(C(=O)OC)c1CSc1nnnn1C,5.3e-09,5%,-4.3%,i,i
CCOC(=O)c1c(N2C(=O)C3C4C=CC(O4)C3C2=O)sc2c1CCCC2 (stereo not given),nt,?,-0.1%,nt,nt
CCc1cc2c(=O)n(-c3ccccc3)cnc2s1,3.3e-09,1%,-3.3%,i,i
CCCNC(=O)OC[C@@H]1O[C@H](CCO/N=C2\c3cc(OC)ccc3O[C@H](c3cccc(OC)c3)[C@H]2O)C=C[C@@H]1Oc1ccc(OC)cc1,nt,4%[11.4 µM],-3.3%[11.5 µM],nt,nt
Cc1ccc2c(c1)N(CC(=O)N1CCCc3ccccc31)C(=O)CO2,1.4e-08,17%,-1.7%,i,i
O=C1CCCN1CCCn1cnc2c([nH]c3ccc(F)cc32)c1=O,1e-09,-2%,2.2%,i,i
COC(=O)c1ccc(CSc2nc3ccccc3o2)cc1,2.5e-08,nt,2.0%,i,i
CCn1ccc(=N)cc1,4.1e-08,-2%,-2.7%,i,i
CCOC(=O)C1CCN(C(=O)Nc2ccc(Cl)cc2)CC1,nt,-6%,-1.2%,nt,nt
O=C(O)CCCc1ccc2ccc3ccccc3c2c1,2.1e-08,3%[11.4 µM],-0.3%[11.5 µM],i,i
O=C(NCCN1CCN(Cc2ccccc2)CC1)C1c2ccccc2C(=O)N2CCc3ccccc3C12 (stereo not given),2.3e-09,?,5.1%,i,i
CCOC(=O)C1CCN(C(=O)CNC(=O)OC(C)(C)C)CC1,1.9e-09,?,1.5%,i,i
COCCNC(=O)C1(C)C=CCN1C(C)=O (stereo not given),nt,4%,1.3%,nt,nt
CC12CCC(C(N)=O)(c3nc4ccccc4nc31)C2(C)C (stereo not given),2e-08,-2%,-3.6%,i,i
COC(=O)COc1cccc(NS(=O)(=O)c2ccc(NC(C)=O)cc2)c1,1.2e-09,-4%,-1.8%,i,i
CCCOC(=O)/C(C(N)=NCc1ccccc1)=C(\O)OCCC,nt,16%[11.4 µM],-1.0%,nt,nt
CCCN(CC1CC1)C(=O)Nc1ccccc1C,4e-08,9%,0.7%,i,i
COc1cc(C2c3c(oc4ccc(C)cc4c3=O)C(=O)N2c2cc(C)ccn2)cc(OC)c1OC (stereo not given),1e-08,8%,0.1%,i,i
Cc1cc(C2=CC(C)(c3cc(C)oc3C)Nc3nc(C(F)(F)F)nn32)c(C)o1 (stereo not given),3.3e-09,-7%,-1.9%,i,i
Cc1ccc(CS(=O)(=O)CCC(=O)NCCN2CCCC2)cc1,3.9e-08,?,0.1%,i,i
COC(=O)c1cc2occc2n1CC(=O)N(C)C1CCCCC1,1e-09,14%[11.4 µM],0.8%,i,i
Cn1c(=O)c2[nH]c(CCCc3ccc([N+](=O)[O-])cc3)nc2n(C)c1=O,4.5e-08,3%[11.4 µM],2.4%[11.5 µM],i,i
CCC(C)n1cnc2c(c1=O)c1nc3ccccc3nc1n2-c1ccc2c(c1)OCCO2 (stereo not given),1.2e-08,-1%,5.0%,i,i
O=C(Nc1ccc2c(c1)OCO2)C1CCCN1C(=O)Nc1ccccc1F (stereo not given),1.3e-08,nt,-1.0%,i,i
O=C(NCc1cccs1)Nc1ccc2c(c1)OCO2,3.2e-08,3%,-0.8%,i,i
CCOC(=O)CC(=O)CSc1nc2c(sc(=S)n2-c2ccccc2)c(=O)[nH]1,6.8e-09,8%,3.1%,i,i
O=C(COc1ccc(Cl)cc1)NCc1nnc(SCC(=O)c2ccccc2)o1,2.7e-09,10%[11.4 µM],2.2%,i,i
CCOC(=O)c1cc2ccc(OC)c(OC)c2c(=O)s1,1.7e-08,0%,3.5%,i,i
c1ccc(OCc2nn3c(-c4cccnc4)nnc3s2)cc1,1e-09,nt,nt,i,i
Cc1c(C(=O)NCc2ccc3c(c2)OCO3)oc2ccc(S(=O)(=O)N3CCCCCC3)cc12,1e-09,2%[11.4 µM],0.3%,i,i
CC1(C)CC(NS(=O)(=O)c2ccc(S(=O)(=O)N3CCOCC3)cc2)CCO1 (stereo not given),1e-09,-1%,3.9%,i,i
O=C(CCCc1ccccn1)c1ccccc1,4.6e-08,3%[11.4 µM],1.1%[11.5 µM],i,i
CCC1(COC(NC(=O)c2cccnc2)(C(F)(F)F)C(F)(F)F)COC1,1e-09,0%,1.1%,i,i
COc1ccc(C(=O)N(CCN2CCOCC2)CC(=O)NC2CCCC2)cc1OC,6.6e-09,-3%,0.2%,i,i
CN1CCN(S(=O)(=O)c2ccc(NC(=O)c3ccc(Br)o3)cc2)CC1,2.8e-08,2%,0.2%,i,i
COC(=O)c1ccc(Oc2nc(NC(C)C)nc(N(C)C)n2)cc1,7.1e-09,10%,0.7%,i,i
O=C(O)c1ccc(C(=O)O)c2c(C(=O)O)ccc(C(=O)O)c12,1e-09,28%[11.4 µM],1.7%[11.5 µM],i,i
O=C(C1CCCN(S(=O)(=O)c2cccc3cccnc23)C1)N1CCN(c2ccccc2F)CC1 (stereo not given),nt,4%,-0.7%,nt,nt
O=C(NCc1ccc2c(c1)OCO2)Oc1ccccc1,nt,-1%,3.8%,nt,nt
Cc1cccc(NC(=O)CC2NC3CCCCC3NC2=O)c1 (stereo not given),1.2e-08,12%,-2.0%,i,i
COc1cccc2c1C(=O)c1c(O)c3c(c(O)c1C2=O)C[C@@](O)(C(=O)CO)C[C@H]3O[C@H]1C[C@@H](N)[C@H](O)[C@@H](C)O1.[W],4.2e-09,0%[11.4 µM],-0.5%[11.5 µM],i,i
Cc1cc(C)c(S(=O)(=O)NCCC2CCCN2C)c(C)c1 (stereo not given),2.4e-08,10%,-0.5%,i,i
COc1cc(OC)cc(-c2cc3nc4c(c(N5CCN(c6ncccn6)CC5)n3n2)CCCC4)c1,1.7e-09,19%,0.1%,i,i
COc1ccccc1NC(=O)CSc1nc(O)cc(=O)n1C,2.8e-09,3%,1.2%,i,i
O=C(Cn1cc2c(n1)CCCC2)Nc1ccccc1Br,nt,?,-1.2%,nt,nt
CCOCCCNC(=O)Cc1c(C(=O)O)[nH]c2ccc(Cl)cc12,nt,1%,-1.1%,nt,nt
O=c1oc2c3c4c(cc2s1)CCCN4CCC3,nt,-2%,1.9%,nt,nt
O=C(CCCn1c(=O)c2ccccc2n(Cc2ccccc2)c1=O)NCc1ccco1,2.4e-08,8%,-0.5%,i,i
Cn1c(=O)[nH]c(=O)c2c1nc(CN1CCN(c3cccc(Cl)c3)CC1)n2CCc1ccccc1,5e-09,?,-1.1%,i,i
CCOC(=O)N1CCN(C(=O)Cn2ccc3ccccc3c2=O)CC1,2.4e-09,-8%[11.4 µM],1.1%,i,i
CSc1cccc(NC(=O)C2CCN(S(=O)(=O)c3ccc(F)cc3)CC2)c1,nt,-19%,-2.3%,nt,nt
COc1ccc(Br)cc1CNc1ccc(O)cc1,1e-09,-14%,5.1%,i,i
COc1ccc(CN2CCC(=O)NC2=O)cc1,6.2e-08,nt,nt,i,i
O=C(Nc1ccccc1)N1CC2(CCN(C(=O)c3ccco3)CC2)C1,1e-09,?,3.9%,i,i
CC(C)(C)Nc1nc(Oc2ccc(=O)n(-c3ccccc3)n2)nc(N2CCOCC2)n1,1.8e-08,12%,-0.5%,i,i

# Two compounds picked at random from those above, as already listed:
SMILES,A647 autofl,TSHR agonist,AID923,A488 autofl,Resorufin fluor
Cc1cc(C)c(S(=O)(=O)NCCC2CCCN2C)c(C)c1 (stereo not given),2.4e-08,10%,-0.5%,i,i
CCOC(=O)N1CCN(C(=O)Cn2ccc3ccccc3c2=O)CC1,2.4e-09,-8%[11.4 µM],1.1%,i,i

# (further entries)
SMILES,A647 autofl,TSHR agonist,AID923,A488 autofl,Resorufin fluor
O=C(O)c1n[nH]c2ccccc12,1.2e-08,2%,1.7%,i,i
COC(=O)c1ccc2c(=O)n(CCCN3CCOCC3)c(=S)[nH]c2c1,1e-09,-1%,1.7%,i,i
O=C(NCC1CCCO1)C1CCN(S(=O)(=O)c2cccc3cccnc23)CC1 (stereo not given),nt,-2%,1.6%,nt,nt
CCCn1nnc(NC(=O)c2cccc(OCC)c2)n1,2.6e-08,?,-2.2%,i,i
CCOC(=O)Cc1c(C)nc2cc(-c3ccc(C)cc3)[nH]n2c1=O,1.8e-09,-14%,-0.1%,i,i
O=C1CC(N2CCC(c3nc4ccccc4s3)CC2)C(=O)N1 (stereo not given),1e-09,-2%,-3.7%,i,i
CC(=O)NCCNc1ccnc(-c2ccccc2C(F)(F)F)n1,1e-09,1%,0.2%,i,i
CN1CCc2cc(NC(=O)Nc3cccnc3)ccc21,3.4e-08,?,-1.1%,i,i
CCCc1cc(N2CCCC2)n2nc(C)c(-c3ccccc3)c2n1,7e-09,?,-1.6%,i,i
CCN(CC)C(=O)COC(=O)c1ccc(O)cc1,nt,-2%,9.5%,nt,nt
Clc1ccccc1CSc1nnc(-c2ccccn2)n1Cc1ccco1,6e-09,3%,-1.2%,i,i
C=CCn1c(SCC(=O)Nc2ccc3c(c2)OCO3)nnc1-c1ccccc1,6.1e-09,20%,-0.7%,i,i
NC(=O)C1CCN(Cc2nc(-c3ccccc3)no2)CC1,3.5e-09,-3%,0.5%,i,i
N#Cc1nc(-c2ccco2)oc1NCCCn1ccnc1,5.7e-09,4%,1.4%,i,i
Cc1cc(C)c(NC(=O)C[C@H](CC(=O)O)c2cccc3ccccc23)c(C(=O)N2CCC3(CCCC3)CC2)c1,2.5e-09,-50%[inhibitor],1.9%,i,i
CN(Cc1ccco1)c1cc(-c2ccccc2C(F)(F)F)ncn1,1e-09,6%,1.3%,i,i
COc1cccc(Cn2c(=O)c(-c3cccc(C#N)c3)nc3cnc(Nc4ccccc4)nc32)c1,3.1e-08,8%,6.0%,i,i
FC(F)(F)c1cccc(Nc2ncnc3ccccc23)c1,1.6e-08,?,0.6%,i,i
CCC1(CC)NC(=O)N(CC(=O)OCn2nnc3ccccc3c2=O)C1=O,1.9e-08,-3%,0.6%,i,i
CCCCCC(=O)N1CCN(c2ccc(C(C)=O)cc2F)CC1,nt,7%,3.0%,nt,nt

# Some values from the results shown.
# In AID923, CN(Cc1ccco1)c1cc(-c2ccccc2C(F)(F)F)ncn1 shows 1.3%
# In AID923, COc1cccc(Cn2c(=O)c(-c3cccc(C#N)c3)nc3cnc(Nc4ccccc4)nc32)c1 shows 6.0%
# In AID923, Cc1cc(C)c(NC(=O)C[C@H](CC(=O)O)c2cccc3ccccc23)c(C(=O)N2CCC3(CCCC3)CC2)c1 shows 1.9%
# In A647 autofl, CCCn1nnc(NC(=O)c2cccc(OCC)c2)n1 shows 2.6e-08

# Other records follow:
SMILES,A647 autofl,TSHR agonist,AID923,A488 autofl,Resorufin fluor
CCOc1ccc2nc(NC(=O)CSc3nc4ccccc4c(=O)n3Cc3ccco3)sc2c1,1e-09,-5%,1.9%,i,i
COCCNc1oc(-c2ccc(Cl)cc2)nc1C#N,1e-09,nt,nt,i,i
CC(C)(C)NC(=O)c1ccc2nccnc2c1,1e-09,2%,1.7%,i,i
COCCn1c(=O)c(-c2ccc(Cl)cc2)nc2cncnc21,1e-09,?,20%,i,i
